# Source: PubChem (Broad Institute)
# FGF22 binding: shifts melting point of recombinant human FGF22; hit rate 1.5% among 340,000; calls only at 9.99 µM; Q9HCT0; recombinant FGF22 thermal shift, SYPRO orange fluorescence; percent of sucrose octasulfate shift, DMSO zero;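 active = melting point raised past a set limit in the mean and every replicate; three in four hits are not shown here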
# Target sequence (Q9HCT0 whole entry, looked up): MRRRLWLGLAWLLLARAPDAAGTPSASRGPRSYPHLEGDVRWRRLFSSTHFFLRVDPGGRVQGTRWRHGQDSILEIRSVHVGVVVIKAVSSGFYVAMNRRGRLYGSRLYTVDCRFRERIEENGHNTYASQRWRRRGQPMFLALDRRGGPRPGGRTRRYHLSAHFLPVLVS
# AF4-AF9 inh: blocks AF4 peptide binding to human AF9; P42568; AlphaScreen, biotin-AF4 peptide binding to FLAG-AF9; inhibition, % at 10 µM; hit rate 0.47% among 350,000;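 active = every replicate reaching a set inhibition limit, whatever the replicate mean, cut at about 25% in these data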;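 also: 0% = plate neutral control median and 100% = total signal loss; the record names both 10 and 1 µM as test concentration; the first replicate is given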
# Target sequence (P42568 whole entry, looked up): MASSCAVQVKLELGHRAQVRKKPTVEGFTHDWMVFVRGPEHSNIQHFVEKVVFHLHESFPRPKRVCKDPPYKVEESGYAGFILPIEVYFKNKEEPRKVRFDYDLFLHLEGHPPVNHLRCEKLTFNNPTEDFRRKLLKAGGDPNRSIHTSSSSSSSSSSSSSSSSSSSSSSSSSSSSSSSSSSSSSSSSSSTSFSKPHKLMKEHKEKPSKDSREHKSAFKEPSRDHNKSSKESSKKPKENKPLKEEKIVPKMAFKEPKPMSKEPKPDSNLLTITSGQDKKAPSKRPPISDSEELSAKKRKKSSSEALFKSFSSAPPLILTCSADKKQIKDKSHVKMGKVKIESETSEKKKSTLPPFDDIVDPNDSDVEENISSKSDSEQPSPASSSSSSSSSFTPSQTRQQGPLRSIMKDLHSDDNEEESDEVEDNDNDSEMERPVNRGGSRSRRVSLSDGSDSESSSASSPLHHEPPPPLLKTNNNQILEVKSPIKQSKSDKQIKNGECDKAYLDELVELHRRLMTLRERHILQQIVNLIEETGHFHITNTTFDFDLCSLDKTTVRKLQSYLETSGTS
# Ecoli rRNA inh: inhibits bacterial ribosomal RNA function over humanized ribosomes; GFP signal change (wild-type ribosome), % (test concentration not listed); AID 720706; hit rate 1.6% among 350,000; E. coli WT GFP vs humanized-ribosome RFP mutants, fluorescence, 24 h; active compounds read low; DMSO median 0, no signal -100;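 active = significant combined selectivity score with lowered wild-type GFP, culture density cut under 30%, mutant RFP and density less affected; inactive = any of these conditions unmet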; also: one replicate is shown; some compounds called inactive have numbers as strong as hits
# Ecoli rRNA inh OD600: second read-out of Ecoli rRNA inh, no call of its own (marks repeat the call); OD600 change, %; measured here: OD600 growth;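 optical density of the mix in the first replicate; 0 = DMSO median and -100 = no signal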
# Ecoli rRNA inh RFP: second read-out of Ecoli rRNA inh, no call of its own (marks repeat the call); RFP signal change, %; measured here: RFP humanized mutant strains;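 first replicate; 0 = DMSO median and -100 = no signal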
# An asterisk follows results filed as active; i = inactive; + = active, no number; & = joins results of further samples. A portion of the library (hit frequency here may not be typical).
SMILES,FGF22 binding,AF4-AF9 inh,Ecoli rRNA inh,Ecoli rRNA inh OD600,Ecoli rRNA inh RFP
COc1ccc(S(=O)(=O)Nc2ccc3c(c2)C(=O)N([C@@H](C)CO)C[C@@H](C)[C@@H](CN(C)C(=O)NC(C)C)OCCCC[C@@H](C)O3)cc1,i,2.6,-1,3,2.6
CCCc1cn(CC[C@H]2CC[C@@H](NS(=O)(=O)c3ccc(-c4ccccc4)cc3)[C@@H](CO)O2)nn1,i,-1.7,-20,-44,6.7
CN(C(=O)c1cccc(NC(=O)Cc2ccc(NC(=O)C3CCN(C(=O)C4CCCC4)CC3)cc2)c1)C1CCC1,i,13,-2,-15,2.4
COc1ccc(S(=O)(=O)N(C)C[C@@H]2OCCCC[C@@H](C)Oc3ccc(NS(=O)(=O)c4cn(C)cn4)cc3C(=O)N([C@H](C)CO)C[C@@H]2C)cc1,i,-6.7,2,-2,-2.7
CCCC(=O)Nc1ccc2c(c1)C(=O)N(C)C[C@@H](OC)[C@H](C)CN(C(=O)CN(C)C)[C@@H](C)CO2,i,-2.1,0,-1,-0.9
C[C@H](CO)N1C[C@H](C)[C@@H](CN(C)S(C)(=O)=O)OCCCC[C@H](C)Oc2ccc(NC(=O)CCCN(C)C)cc2C1=O,i,-7.8,1,7,-1.7
CCC(=O)N1[C@@H]2Cn3c(cccc3=O)[C@H]1[C@@H](C(=O)N1CCc3ccccc3C1)[C@@H]2CO,i,-10,3,2,-1.6
OCCN1CCN(c2nccn3ccnc23)CC1,i,-0.8,6,17,-2.8
COc1cccc(-c2cnc3c(c2)C(=O)N([C@H](C)CO)C[C@@H](C)[C@@H](CN(C)C(=O)Nc2ccccc2F)O3)c1,i,-0.9,-5,2,0.5
O=C(N[C@@H]1CC[C@H](CCNS(=O)(=O)c2ccc(F)cc2)O[C@@H]1CO)C1CCC1,i,0.2,-2,-1,-1.4
CC(=O)c1c(O)cc2c3c1OC(C)(C)C1CCC(C)(CC31)O2 (configuration not stated),i,-0.7,-7,0,3.9
C[C@@H]1CN([C@@H](C)CO)S(=O)(=O)c2ccc(C#CC3CC3)cc2O[C@H]1CN(C)C(=O)c1ccccc1,i,4.1,-25,-51,4.0
O=C(c1cccc(F)c1)N1C[C@H]2[C@@H](c3ccccc31)[C@@H](CO)N2C(=O)c1ccccn1,+,-2.2,0,2,-5.1
O=C(N[C@@H]1CC[C@@H](CCn2cc(C3(O)CCCC3)nn2)O[C@H]1CO)C1CCCCC1,i,-2.4,2,14,-4.9
CC(C)C(=O)N1CCCC1(C)C(=O)N(C)Cc1cccc2ccccc12 (configuration not stated),i,-0.5,7,2,0.6
CN(C)C(=O)C[C@H]1C=C[C@@H](NC(=O)C2CCC2)[C@H](CO)O1,i,-1.3,1,2,-0.4
CO[C@H]1CN(C)C(=O)c2cccc(C#N)c2OCC[C@@H]2CC[C@@H](OC)[C@H](CN(C)C(=O)[C@@H]1C)O2,i,-30,0,6,0.4
COCCNC(=O)C[C@H]1C[C@@H]2c3cc(NC(=O)Nc4ccc(OC)cc4)ccc3O[C@@H]2[C@@H](CO)O1,i,-5.4,1,1,-1.1
C[C@@H]1CCCCO[C@H](CN(C)Cc2ccc(Cl)c(Cl)c2)[C@@H](C)CN([C@@H](C)CO)C(=O)c2cc(NC(=O)Cc3ccccc3)ccc2O1,i,0.8,-3,-18,28
CC(C)NC(=O)Nc1cccc2c1O[C@@H](CN(C)S(=O)(=O)c1ccc(Cl)cc1)[C@@H](C)CN([C@@H](C)CO)C2=O,i,-2.0,-2,-11,-1.0
CCCC(=O)Nc1ccc2c(c1)OC[C@@H](C)N(C(C)=O)C[C@@H](C)[C@H](OC)CN(C)C2=O,i,0.4,2,3,-0.5
CC(C)Nc1ncnc2c1ncn2[C@H]1CN(C2CCCC2)C[C@@H](CO)O1,i,-2.1,5,17,-1.9
CCC(=O)N(C)C[C@H]1Oc2ncc(C#Cc3ccccc3OC)cc2C(=O)N([C@H](C)CO)C[C@H]1C,i,-13,0,1,-0.7
O=C(CSc1nncs1)Nc1cccc2ccccc12,i,-1.3,2,-9,-0.8
O=c1[nH]c2c(c(=O)[nH]1)OCN(Cc1ccccc1)C2,i,-2.4,-3,19,-2.5
COCC(=O)Nc1ccc2c(c1)C(=O)N(C)C[C@@H](OC)[C@@H](C)CN(Cc1ccncc1)[C@@H](C)CO2,i,-3.3,2,2,2.9
C[C@H]1CN([C@@H](C)CO)C(=O)c2cccc(NC(=O)C3CC3)c2O[C@H]1CN(C)Cc1ccc(C(=O)Nc2ccccc2N)cc1,i,4.0,3,-3,-2.8
C[C@@H]1CCCCO[C@@H](CN(C)C(=O)Nc2ccc(F)cc2)[C@H](C)CN([C@H](C)CO)C(=O)c2cc(NC(=O)NC3CCCCC3)ccc2O1,i,0.6,0,5,0.3
O=C(CC1CC1)Nc1ccc2c(c1)[C@@H]1C[C@H](CC(=O)NC3CCCC3)O[C@@H](CO)[C@@H]1O2,i,-5.8&-5.1,4&4,7&6,-13&0.2
COc1ccc(S(=O)(=O)N(C)C[C@H]2Oc3c(NS(=O)(=O)c4ccccc4)cccc3C(=O)N([C@H](C)CO)C[C@H]2C)cc1,i,-0.8,0,0,0.9
C[C@@H]1CN([C@H](C)CO)S(=O)(=O)c2ccc(-c3ccccc3)cc2O[C@@H]1CN(C)Cc1ccccc1C(=O)O,i,7.7,-3,3,-1.8
O=C(Nc1ccc2c(c1)[C@H]1C[C@@H](CC(=O)N3CCc4ccccc4C3)O[C@@H](CO)[C@H]1O2)C1CCC1,i,0.7,-6,-7,-0.4
CCCNC(=O)c1cc(C2CCCN(S(=O)(=O)c3cccs3)C2)on1 (configuration not stated),i,-0.3,-3,-11,3.0
O=C(Nc1ccc(C(=O)N2CCCC2)cc1)C1CCCC1,i,-2.7,22,13,-2.3
C[C@H]1CN([C@@H](C)CO)C(=O)c2cc(NS(=O)(=O)c3cccs3)ccc2O[C@@H]1CN(C)S(C)(=O)=O,i,-2.7,0,6,-3.2
C[C@H]1CN([C@@H](C)CO)C(=O)Cc2cc(NC(=O)NC3CCCCC3)ccc2O[C@H]1CN(C)Cc1ccccc1,i,2.7,2,-2,1.5
CC(=O)OC1C=CN(C(C)=O)C(SC(C)(C)C)C1(C)O (configuration not stated),i,0.9,11,10,-2.3
O=C(C[C@@H]1CC[C@H]2[C@@H](COC[C@@H](O)CN2S(=O)(=O)c2ccc(Cl)cc2)O1)NCCN1CCCC1,i,-4.3,2,2,-2.1
Cc1ccc(S(=O)(=O)N[C@@H]2CC[C@H](CCNC(=O)c3ccc4c(c3)OCO4)O[C@@H]2CO)cc1,i,-1.4,-1,-4,-1.2
COc1ccc(CNC(=O)c2cccc3c(-c4cnn(C)c4)coc23)cc1OC,i,-0.5,-5,-21,-0.5
C[C@H](CO)N1C[C@H](C)[C@@H](CN(C)Cc2ccc(C(F)(F)F)cc2)OCCCC[C@H](C)Oc2ccc(NC(=O)CCC(F)(F)F)cc2C1=O,i,1.9,3,-4,6.1
C[C@@H]1CN([C@H](C)CO)C(=O)c2cccc(NC(=O)c3cnccn3)c2O[C@H]1CN(C)C(=O)Nc1ccc2c(c1)OCO2,i,-2.3,2,2,-1.8
O=C(C[C@@H]1CC[C@H]2[C@@H](COC[C@H](O)CN2Cc2ccccc2)O1)NCc1ccccc1Cl,i,-0.5,3,0,-1.0
C[C@H](CO)N1C[C@H](C)[C@H](CN(C)C(=O)Cc2ccccc2)Oc2ncc(C3=CCCCC3)cc2C1=O,i,-16,-1,-7,2.1
C[C@@H]1CN([C@H](C)CO)C(=O)c2cccc(NC(=O)c3cnccn3)c2O[C@H]1CN(C)S(C)(=O)=O,i,-2.8,2,4,-1.8
CCOc1ccc(CCN2C(=O)C(=O)N([C@@H](Cc3ccccc3)CN3CCC[C@H]3CN3C(=O)C(=O)NC[C@@H]3Cc3ccccc3)C[C@@H]2Cc2ccccc2)cc1,i,2.2,3,1,3.9
Cc1noc(C)c1S(=O)(=O)N(C)C[C@@H]1OCCCC[C@@H](C)Oc2ccc(NC(=O)Nc3ccccc3)cc2C(=O)N([C@@H](C)CO)C[C@@H]1C,i,-1.6,5,6,-1.4
CNC[C@H]1Oc2cc(Br)ccc2S(=O)(=O)N([C@H](C)CO)C[C@@H]1C,i,-1.7,3,1,-2.0

# Arranged by formula weight (low to high): part of the list above.
SMILES,FGF22 binding,AF4-AF9 inh,Ecoli rRNA inh,Ecoli rRNA inh OD600,Ecoli rRNA inh RFP
C[C@H](CO)N1C[C@H](C)[C@H](CN(C)C(=O)Cc2ccccc2)Oc2ncc(C3=CCCCC3)cc2C1=O,i,-16,-1,-7,2.1
O=C(C[C@@H]1CC[C@H]2[C@@H](COC[C@@H](O)CN2S(=O)(=O)c2ccc(Cl)cc2)O1)NCCN1CCCC1,i,-4.3,2,2,-2.1
Cc1noc(C)c1S(=O)(=O)N(C)C[C@@H]1OCCCC[C@@H](C)Oc2ccc(NC(=O)Nc3ccccc3)cc2C(=O)N([C@@H](C)CO)C[C@@H]1C,i,-1.6,5,6,-1.4
CCOc1ccc(CCN2C(=O)C(=O)N([C@@H](Cc3ccccc3)CN3CCC[C@H]3CN3C(=O)C(=O)NC[C@@H]3Cc3ccccc3)C[C@@H]2Cc2ccccc2)cc1,i,2.2,3,1,3.9

# The listing continues:
SMILES,FGF22 binding,AF4-AF9 inh,Ecoli rRNA inh,Ecoli rRNA inh OD600,Ecoli rRNA inh RFP
C[C@H]1CN([C@@H](C)CO)C(=O)Cc2cc(NC(=O)CCCCCC(=O)Nc3ccccc3N)ccc2O[C@H]1CN(C)S(=O)(=O)c1ccccc1,i,-2.4,3,4,-0.5
Cc1cc(-c2ccccc2)cc(=O)[nH]1,i,-3.1,15,19,-2.1
COc1ccccc1S(=O)(=O)N[C@@H]1CC[C@H](CC(=O)N2CCOCC2)O[C@H]1CO,i,-0.6,4,11,-3.4
Cc1noc(C)c1S(=O)(=O)Nc1ccc2c(c1)C(=O)N([C@@H](C)CO)C[C@H](C)[C@@H](CN(C)C(=O)Nc1ccccc1)OCCCC[C@@H](C)O2,i,5.0,-3,-7,-0.2
CCNC(=O)C1(C)CCCN(C(=O)c2csc3ccccc23)C1 (configuration not stated),i,0.2,1,8,-4.6
COc1ccc(-c2coc3c(C(=O)NCc4ccc(C(F)(F)F)cc4)cccc23)c(C)c1,i,-1.7,7,8,-2.2
CCCNC(=O)Nc1ccc2c(c1)OC[C@@H](C)N(Cc1ccccc1)C[C@H](C)[C@@H](OC)CN(C)C2=O,i,2.3,-2,-15,1.7
Cc1noc(C)c1NC(=O)N(C)C[C@H]1Oc2ccc(NC(=O)NC3CCCCC3)cc2C(=O)N([C@H](C)CO)C[C@H]1C,i,-3.3,-1,7,-3.3
O=C(C[C@@H]1CC[C@H]2[C@@H](COC[C@@H](O)CN2CCC(F)(F)F)O1)N1CCC(Cc2ccccc2)CC1,i,0.2,3,-20,3.7
O=C(C[C@H]1C=C[C@@H](NC(=O)C2CCOCC2)[C@H](CO)O1)Nc1ccc(-c2ccccc2)cc1,i,0.0,0,-2,-2.5
COc1ccc2c3c(n(C)c2c1)[C@H](CO)N(Cc1ccncc1)CC31CN(C(=O)C2CC2)C1,i,-0.8,2,6,-2.7
C[C@H]1CCCCO[C@H](CN(C)Cc2ccc(Cl)c(Cl)c2)[C@@H](C)CN([C@@H](C)CO)C(=O)c2cc(NC(=O)Cc3ccccc3)ccc2O1,i,-1.5,-4,-7,2.5
C[C@H](CO)N1C[C@H](C)[C@@H](CN(C)CC2CC2)Oc2ccc(NC(=O)Nc3cccc4ccccc34)cc2CC1=O,i,8.8,1,-1,2.8
C[C@H](CO)N1C[C@H](C)[C@H](CN(C)CC2CC2)Oc2ccc(NS(=O)(=O)c3cn(C)cn3)cc2C1=O,i,-4.3,3,3,-0.3
CC(C)Oc1cccc(NC(=O)C2(C)CCN2C(C)C)c1 (configuration not stated),i,-0.2,13,8,-1.6
CCOCc1nc2nc(Cl)c(Cl)nc2[nH]1,i,0.2,1,2,-2.4
C[C@@H]1CN([C@H](C)CO)C(=O)c2cc(-c3ccc(C#N)cc3)cnc2O[C@@H]1CN(C)CC1CCOCC1,i,-2.5,4,7,-2.3
C[C@H](CO)N1C[C@H](C)[C@@H](CN(C)S(=O)(=O)c2ccc(C#N)cc2)OCc2ccccc2-c2ccccc2C1=O,i,-1.7,-2,-2,-3.1
